VDR inh – Inhibitors of the vitamin D receptor (VDR): qHTS | Vitamin D3 receptor (Homo sapiens), P11473 | 400,000 tested, 0.93% active | VDR-SRC2-3 peptide fluorescence polarization, 2 h | Potency, µM, for the others: max response, negative = inhibition, hits mostly inhibitors; active means well fitted inhibition curve with a large enough effect; inconclusive means small, poorly fitted or top-dose-only effect, or another doubt; inactive means no such curve, though single readings can be large or run the other way; further: series mostly up to about 120 µM
Target sequence (P11473 whole entry, looked up): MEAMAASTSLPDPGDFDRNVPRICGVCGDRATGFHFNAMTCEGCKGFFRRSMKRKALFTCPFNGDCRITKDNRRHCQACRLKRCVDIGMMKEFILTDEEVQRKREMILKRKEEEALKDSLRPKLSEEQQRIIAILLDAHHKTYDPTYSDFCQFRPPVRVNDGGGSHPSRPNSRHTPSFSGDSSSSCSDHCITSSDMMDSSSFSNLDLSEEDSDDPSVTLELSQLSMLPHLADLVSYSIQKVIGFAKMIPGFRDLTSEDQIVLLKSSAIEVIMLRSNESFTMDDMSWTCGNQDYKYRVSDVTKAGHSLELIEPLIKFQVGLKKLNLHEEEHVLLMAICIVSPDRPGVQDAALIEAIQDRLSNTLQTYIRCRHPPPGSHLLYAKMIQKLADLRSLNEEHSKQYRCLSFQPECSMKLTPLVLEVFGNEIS
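The screen uses fluorescence polarization to detect compounds that interfere with recruitment of the SRC2-3 coactivator peptide to VDR; plates are read after 2 h at room temperature.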
* hit, by the source's call; ? = inconclusive; & = joins results of further samples; [ ] = dose if it differs, or a comment. On the % scale 0 is the no-effect control and ±100 the full control effect; potency means the concentration at half of the fitted maximal effect. An excerpt; rates above refer to the full screens.

SMILES	VDR inh
c1coc(CN2CNc3nc4ccccc4n3C2)c1	-1%
O=C(NCC(c1ccc2c(c1)OCO2)N1CCN(c2ccccc2)CC1)c1ccccc1 (stereo not drawn)	1%
NCCCCCCCCCCN	-6%
CSc1ccc(CCNC(=O)c2ccc(-c3nc(COc4ccc(C)cc4)c(C)o3)cc2)cc1	18%
COc1ccc(NC(=O)CSc2oc(-c3ccc(C)cc3)nc2S(=O)(=O)c2ccc(C)cc2)c(OC)c1	15%
Cc1cccn2c(=O)nc(SCC(=O)NCc3ccc4c(c3)OCO4)nc12	-5%
COc1ccc(NC(=O)COCc2cc(-c3ccc4c(c3)OCO4)on2)cc1	4%
COCC(C)NS(=O)(=O)c1ccc(NC(=O)C(Cc2ccccc2)NC(N)=O)cc1 (stereo not drawn)	1%
CC1(O)C(=O)C=C2C=C(c3ccc(C#N)cc3)OC=C2C1=O (stereo not drawn)	-24%
Cc1ccc(C2=NC(c3ccc(F)cc3)=Nc3ccc(C)cc3N2)cc1	8%
CCOCc1nnc(NC(C)=O)s1	4%
COc1cccc(OC)c1OC(=O)c1cnccn1	-22%
CCc1ccc(C(=O)OCC(=O)NCCNC(=O)COC(=O)c2ccc(CC)cc2)cc1	-1%
CN(C)c1ccc2c(=O)[nH][nH]c(=O)c2c1	-26%
COC(CNC(=O)c1ccc2nc3ccccc3c(=O)n2c1)OC	1%
COc1ccc(-c2nnc(SCCOc3ccccc3C)o2)cc1OC	10%
Cc1oc(-c2cccc(Br)c2)nc1Cn1c(SCc2cccc(F)c2)nc2cccnc21	12%
Nc1c(Cl)cc(C2=NCCn3c2c2ccc([N+](=O)[O-])cc2[n+]3[O-])cc1Cl	-3%
Cc1ccc(-n2[nH]c(C)c(CCC#N)c2=O)cc1	-25%
O=C(NNC(=O)c1cccnc1SCc1cccc([N+](=O)[O-])c1)c1cccnc1	10%
COc1ccc(CCNC(=S)N(C)C)cc1OC	-12%
COc1ccc(-c2sc3ccccc3c2C#CC2(O)CCCCC2)cc1	-6%
C[C@H]1[C@H](C)CC[C@]2(C(=O)O)CC[C@]3(C)C(=CC[C@@H]4[C@@]5(C)C[C@@H](O)[C@H](O)C(C)(C)[C@@H]5CC[C@]43C)[C@H]12	-10%
CCOc1ccc(/C=C(\C#N)C(=O)Nc2sc3c(c2C(=O)OC)C(C(=O)OC)CC3)cc1OC (stereo not drawn)	20µM*
COc1cccc(/C=N/NC(=O)c2ccc3nc[nH]c3c2)c1O	-2%
O=C(Nc1cccc(Cl)c1)c1ccc(NCC2CCCO2)c([N+](=O)[O-])c1 (stereo not drawn)	-1%
CCOc1ccc(-c2nnc3ccc(SCc4ccc(C(=O)OC)o4)nn23)cc1	-6%
O=C(NC1CCCCC1)N1CCC(n2c(=O)[nH]c3ccccc32)CC1	-10%
O=C(CCCCCCC(=O)NCc1ccccc1)NCc1ccccc1	-14%
O=C(O)C1CCCCC1C(=O)Nc1ccc(F)c(F)c1 (stereo not drawn)	15%
Cc1ccoc1C(=O)NCCNc1ccc(Cl)cc1[N+](=O)[O-]	4%
CC(/C=N/NC(=O)c1ccco1)=C\c1ccccc1	11%
Cc1ccc(C)n1-c1cc([N+](=O)[O-])ccc1-n1ccnc1	5%
O=C(C1=C(O)C(=O)N(CCN2CCOCC2)C1c1ccc([N+](=O)[O-])cc1)c1cccs1 (stereo not drawn)	?
Cc1cc(NC(=O)CSc2nnc(Cn3c(=O)sc4ccccc43)n2-c2ccccc2C)no1	0%
CC(C)(C)c1ccc(C(=O)NCC(=O)OCC(=O)Nc2ccc3c(c2)OCCO3)cc1	-13%
CCOC(=O)CCCCC(=O)c1[nH]c(=O)[nH]c1CN1CCOCC1	0%
CCc1ccc(C(=O)c2ccccc2C(=O)O)s1	18%
Cc1ccc2nc(COc3ccc(Cl)cc3)cc(=O)n2c1	-10%
CC(=O)c1ccc(S(=O)(=O)N(C)CC(=O)NCC2CCCCC2)cc1	-8%

Exported with the structure last: entries from further up
VDR inh	smiles
-1%	O=C(Nc1cccc(Cl)c1)c1ccc(NCC2CCCO2)c([N+](=O)[O-])c1 (stereo not drawn)
-12%	COc1ccc(CCNC(=S)N(C)C)cc1OC

The list continues:
SMILES	VDR inh
Cc1cc(C)cc(-n2ccnc2SCC(=O)Nc2ccc3c(c2)OCCO3)c1	13%
CCN(CC)S(=O)(=O)c1cc(NC(=O)c2cc([N+](=O)[O-])ccc2N2CCOCC2)ccc1C	9%
O=C(NCc1ccc(Cl)cc1)c1ccc(CSCc2cccc(Cl)c2)o1	-1%
CSc1nccc(NC(=O)c2cccc(Br)c2)n1	2%
O=C(NCCCN1CCOCC1)c1cc(-c2ccc(F)cc2)on1	7%
O=C1NC(=S)NC1(c1ccccc1)c1ccccc1	-13%
Cc1cc(-c2nnc(SCC(=O)NC3CC3)n2C(C)C)cs1	7%
COc1ccc(CCNC(=O)C2=CCN(S(=O)(=O)c3ccc(F)cc3)CC2)cc1OC	11%
COc1ccc(C(=O)OCC(=O)Nc2ccc(N3CCOCC3)cc2)cc1OC	13%
CCOC(=O)N1CCN(C(=O)c2cccn3c(=O)c4cc(Cl)ccc4nc23)CC1	-14%
O=C1c2ccccc2-c2c1c1ccccc1c(=O)n2-c1ccccc1	-5%
Cc1cccc2c(=O)c(C(=O)NCCc3ccccc3)c[nH]c12	-14%
CCn1c(NC(=O)c2ccc(COc3ccc(C)cc3[N+](=O)[O-])o2)nc2ccccc21	12%
CCN(CC)CP(=O)(c1ccccc1)c1ccccc1	-7%
N#Cc1ccc(C23OCCN2CCn2c3c3ccccc3[n+]2[O-])cc1 (stereo not drawn)	10%
COc1ccc(Cl)cc1S(=O)(=O)N(C)CC(=O)N1CCCC1	-11%
COc1ccccc1OCc1ccc(C(=O)Nc2ccccc2)cc1	-1%
CC(=O)NC(Cc1ccc(C)cc1)C(=O)NC1CCN(S(=O)(=O)c2ccccc2)CC1 (stereo not drawn)	6%
O=C(Nc1ccc(OC(F)(F)F)cc1)c1ccccc1-n1cnnn1	6%
CC1(c2ccccc2Br)NC(=O)N(CC(=O)NC2CCCCC2)C1=O (stereo not drawn)	4%
CCCOc1ccc(-c2nnc(-c3ccncc3)o2)cc1	10%
CC(CC(=O)N(C)C1CCCCC1)S(=O)(=O)c1ccc2c(c1)NC(=O)CO2 (stereo not drawn)	-6%
O=C(NCC1CC1)c1ccc2c3n(nc2c1)-c1ccccc1CO3	4%
O=S(=O)(Nc1cccnc1)c1cccc(C(F)(F)F)c1	-24%
CC(C)Oc1ccc(C(=O)NCCCNC(=O)c2cccnc2)cc1	17%
Cn1c(SC/C=C/c2ccccc2)nnc1-c1ccco1	8%
O=C1OCCC1Sc1nc2cc(Cl)ccc2n1Cc1ccccc1 (stereo not drawn)	-5%
Cc1ccc(CNC(=O)C23CN(Cc4ccccc4)CC2C(c2ccc([N+](=O)[O-])cc2)=NO3)o1 (stereo not drawn)	?
Cc1cc(Cl)ccc1Oc1ncc(-c2ccc(Cl)cc2)cn1	-2%
CCCCn1c(SCC(=O)OC)nc2c1c(=O)n(C)c(=O)n2C	0%
O=C(Nc1ccccc1)OC[C@H](CN1CCCCC1)OC(=O)Nc1ccccc1	-6%
Cc1cc(C)n(C(=O)Cn2nc(C)c(Cl)c2C)n1	-24%
Cc1[nH]c2ccccc2c1SCC(=O)N1CCCCCC1	?
COc1ccccc1NC(=O)C1CCCN(S(=O)(=O)c2cnc[nH]2)C1 (stereo not drawn)	-23%
CS(=O)(=O)N1CCN(c2ccc(Cl)cc2[N+](=O)[O-])CC1	-8%
C=C(C)CSc1nc2c(c(=O)[nH]c(=O)n2C)n1Cc1ccccc1	-14%
CCOc1ccc(OCCC(=O)OCC(=O)NCc2ccccc2)cc1	32%[activator]
CCOC(=O)c1c(NC(=O)/C=C/c2ccco2)sc(C)c1C	-4%
O=C(Nc1cccc(C(=O)N2CCN(c3ccc(F)cc3)CC2)c1)c1ccccc1	-13%
Cc1[nH]n(-c2ccccc2)c(=O)c1N=Nc1ccccc1C(=O)N1CCCCC1	-15%
O=C(COCc1cc(-c2ccco2)on1)Nc1cc(Cl)ccc1O	10%
CCNC(=S)N1C2CCC1CC(NC(=O)NC1CCCCC1)C2 (stereo not drawn)	-6%
O=C(c1cccs1)n1nc(-c2ccccc2)nc1NCc1ccc(F)cc1	4%
Cc1ccc(/C=c2\sc3n(c2=O)CN(c2ccc(Br)cc2)CN=3)o1	-12%
C[C@]12CCC(=O)C=C1CC[C@@H]1[C@@H]2[C@@H](O)C[C@@]2(C)[C@H]1CC[C@]2(O)C(=O)COC(=O)CCC(=O)O	-2%&-10%
Cc1ccccc1-c1nc(N2CCN(C)CC2)c2ccccc2n1	-20%
O=C1c2cccc(Sc3ccccc3)c2C(=O)c2c(Sc3ccccc3)cccc21	-9%
CCC(CC)NC(=O)CSc1nnc(-c2ccc(OC)cc2)n1C(C)C	-12%
CC(C)(C)C(=O)O/N=C(\N)c1ccc(Br)cc1	8%
CC(=O)Nc1ccc(S(=O)(=O)NNC(=O)COc2cc(C)ccc2C(C)C)cc1	-6%
CCOC(=O)c1ccc2nc(C)c(C)nc2c1	-6%
O=C(NCC(=O)N1CCCC(C(F)(F)F)C1)c1ccccc1Br (stereo not drawn)	-17%
Clc1cnc(N/N=C/c2cccs2)c(Cl)c1	-1%
CC(O)[C@H]1CC[C@H]2[C@@H]3CC[C@H]4C[C@@H](O)CC[C@]4(C)[C@H]3C(=O)C[C@]12C (stereo partly drawn)	?
c1ccc(OCCSc2nnnn2C2CCCCC2)cc1	4%
O=C(O)C(Cc1ccccc1)NS(=O)(=O)c1ccc2c(c1)OCCO2 (stereo not drawn)	?
COc1ccc(/C=C/C(=O)c2cc(Cl)ccc2O)c(OC)c1	2%
CC(=O)Nc1ccc(C(=O)NNC(=O)c2cc([N+](=O)[O-])cc([N+](=O)[O-])c2)cc1	5%
O=C1CC(c2ccc(O)cc2)Oc2cc(O)ccc21 (stereo not drawn)	-3%
O=c1[nH]cc(O)c(=O)[nH]1	-5%

A second format for part of the listing above:
smiles: CC(=O)Nc1ccc(C(=O)NNC(=O)c2cc([N+](=O)[O-])cc([N+](=O)[O-])c2)cc1
- VDR inh = 5%
smiles: CCC(CC)NC(=O)CSc1nnc(-c2ccc(OC)cc2)n1C(C)C
- VDR inh = -12%
smiles: O=C(COCc1cc(-c2ccco2)on1)Nc1cc(Cl)ccc1O
- VDR inh = 10%
smiles: O=C(O)C(Cc1ccccc1)NS(=O)(=O)c1ccc2c(c1)OCCO2 (stereo not drawn)
- VDR inh = ?

Continued:
SMILES	VDR inh
Oc1ccc(/C=N/n2cc(-c3ccccc3)[nH]c2=S)cc1	-3%
Cc1sc2ncnc(OCC(=O)NC3CCS(=O)(=O)C3)c2c1C (stereo not drawn)	6%
Cc1noc(C)c1COc1ccccc1C(=O)N(C)Cc1ccco1	0%
COc1ccc(/C(N)=N/OC(=O)c2c(-c3ccccc3Cl)noc2C)cc1OC	-1%
OCc1cn(-c2ccccc2)nn1	0%
O=S(=O)(Nc1ccccc1N1CCOCC1)c1ccc(F)c(Cl)c1	-1%
CCOc1cccc(/C=N/NC(=O)C2CCCC2)c1O	-20%
O=C(COC(=O)C12CC3CC(CC(C3)C1)C2)Nc1ccc([N+](=O)[O-])cc1Cl	-9%
CCOc1ccc(NC(=O)Cn2nnc(C(=O)NCc3ccco3)c2N)cc1	3%
O=C(NCc1ccc(F)c(F)c1)C1CCC(=O)N(CCc2ccccc2)C1 (stereo not drawn)	20%
COc1ccc(OCc2nnc(SCC(=O)NC3CCCCC3)o2)cc1	-12%
CCC(=O)N1c2ccc(S(=O)(=O)CCC(=O)NC3CCCC3)cc2CC1C (stereo not drawn)	0%
Cc1ccccc1S(=O)(=O)NC1=NCCCCC1	-16%
O=C(CCC(=O)N(CC(=O)NC1CCCCC1)Cc1cccs1)Nc1ccccn1	16%
COc1cc(OC)cc(-c2nnc(NC(=O)CCS(=O)(=O)c3ccccc3)o2)c1	-11%
COC(=O)c1c(NC(=O)COC(=O)Cn2cnc3ccccc32)sc2c1CCCC2	-16%
CN1N=C(C(=O)N=c2sc3ccccc3n2C)CCC1=O	12%
O=C(O)Cc1ccc(-c2ccccc2-c2ccccc2)cc1	-14%
COc1ccc(-c2cn3nc(SCC(=O)NCC4CCCO4)ccc3n2)cc1 (stereo not drawn)	3%
Cc1cccc(C)c1N1CC(c2nc3ccccc3n2CC(=O)OC(C)C)CC1=O (stereo not drawn)	9%

VDR inh, what is marked active above.
SMILES	VDR inh
CCOc1ccc(/C=C(\C#N)C(=O)Nc2sc3c(c2C(=O)OC)C(C(=O)OC)CC3)cc1OC (stereo not drawn)	20µM*

Single values from the entries so far.
Cc1ccc(/C=c2\sc3n(c2=O)CN(c2ccc(Br)cc2)CN=3)o1 in VDR inh is entered as -12%
COc1ccc(NC(=O)COCc2cc(-c3ccc4c(c3)OCO4)on2)cc1 in VDR inh is entered as 4%
COc1ccc(NC(=O)CSc2oc(-c3ccc(C)cc3)nc2S(=O)(=O)c2ccc(C)cc2)c(OC)c1 in VDR inh is entered as 15%
CC(=O)Nc1ccc(S(=O)(=O)NNC(=O)COc2cc(C)ccc2C(C)C)cc1 in VDR inh is entered as -6%

(listing goes on)
SMILES	VDR inh
Nc1c(Br)cc2c(c1Br)C(O)c1ccccc1-2 (stereo not drawn)	2%
O=C1CC(NNc2ccccc2)C(=O)N1c1ccccc1 (stereo not drawn)	-23%
CC(=O)c1sc(NC(=O)C(C)C)nc1C	2%
CCc1ccc(NC2CC(=O)N(c3ccc(OC)cc3OC)C2=O)cc1 (stereo not drawn)	-6%
COc1cccc(CNS(=O)(=O)c2ccc(-n3cnnn3)c(C)c2)c1	-5%
c1ccc(Cn2c(CSc3nnnn3-c3ccccc3)nc3ccccc32)cc1	4%
O=C(CN(c1ccccc1F)S(=O)(=O)c1ccccc1)Nc1ccc2c(c1)OCCO2	-1%
O=C(CSc1ccc2ccccc2c1Br)Nc1cccc(S(=O)(=O)NC2=NCCCCC2)c1	-12%
O=C1CC(N2CCN(c3ccc(F)cc3)CC2)C(=O)N1Cc1cccs1 (stereo not drawn)	12%
CCc1ccccc1N1CC23C=CC(O2)C(C(=O)OCC(C)C)C3C1=O (stereo not drawn)	-7%
